# Screening results: PubChem, National Center for Advancing Translational Sciences (NCATS)
# PINK1 modulator: PINK1 expression modulation; AID 624263; 0.2% of 410,000 active; PINK1 immunofluorescence, high-content cytometry, 24 h; Potency, µM (doses to about 76.6 µM), without a hit: at the highest dose activation (PINK1 increase), usual class: activators; active = well fitted activation curve with a large enough effect; inconclusive = small, poorly fitted or top-dose-only effect; inactive = flat fitted curve, though single readings scatter; cell line not stated here;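 note: potency is the fitted concentration of half-maximal effect; % of control where 0% means no effect; nearly all actives have a fitted effect of over 65% in size; a mitochondrial uncoupler was the plate control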
#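 Decision-based qHTS: stable cells, 24 h exposure to five compound concentrations, CCCP as control. Fixed cells stained for PINK1 plus nuclear, mitochondrial and cell markers, cytometer read.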
# Sfp PPTase inh: inhibitors of Bacillus subtilis Sfp phosphopantetheinyl transferase; Q9F4F7; Potency, µM, for inactives: max response, negative = inhibition, hits mostly inhibitors; Biochemical Sfp PPTase activity, qHTS; AID 1490; 3.5% of 310,000 active; active = well fitted inhibition curve with a large enough effect; inconclusive = small, poorly fitted or top-dose-only effect, or another doubt; inactive = no such curve, though single readings can be large or run the other way;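 note: the enzyme is Sfp with the accession as filed and its product quenches rhodamine fluorescence; potency is the fitted concentration of half-maximal effect; 0% = enzyme reaction without inhibitor and -100% = no enzyme wells; top concentration of the series not given in the record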
#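 With Hepes-Na pH 7.6 buffer containing 10 mM MgCl2, Sfp (15 nM) modified BHQ-2-YbbR (12.5 uM) using rhodamine-CoA (5 uM). Two reads 30 minutes apart at 525/598 nm yielded each well's rate.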
# D2 agonist: activates the human D2 dopamine receptor. DiscoveRx PathHunter D2 beta-arrestin, luminescence, 90 min; 100% = 57 uM dopamine signal. P14416. activation, % (test concentration not listed). 0.084% of 360,000 active; in the data active = activation above about 40%; inconclusive = about 15% to 40%; inactive = below about 15%; note: compound concentration not given in the record; the text of the record calls up to 30% inactive
#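 Agonist mode: compounds alone added to overnight-plated D2 PathHunter cells for 90 min at 37 C, with 57 uM final dopamine (EC100) defining full response. Beta-arrestin recruitment detected by chemiluminescent reagent, read after 1 h at ambient temperature.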
# D2 potentiator: potentiates the human D2 dopamine receptor allosterically; AID 624464; potentiation, % (concentration not given with the values); 0.23% of 360,000 active; DiscoveRx D2 beta-arrestin cells, luminescence, 90 min; 100% = 57 uM dopamine signal; P14416; active = potentiation of 50% or more; inconclusive = 30% to 50%; inactive = 30% or less;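 note: compound concentration not given in the record; tested on top of an EC20 dose of dopamine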
#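 D2 cells co-treated with compound plus 50 nM dopamine (EC20) for 90 min at 37 deg C to detect potentiation. Beta-arrestin recruitment was read as enzyme-fragment luminescence after 1 h at ambient temperature. Full response was set by 57 uM dopamine.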
# Six1-Eya2 inh: Six1/Eya2 interaction inhibition. AlphaScreen GST-Six1/His-Eya2 binding, biochemical; active compounds read low; control for the full effect not named in the record. 0.56% of 360,000 active. activity change, % (concentration not given with the values). AID 651725; in the data active = activity change below about -65%; inconclusive = about -30% to -65%; inactive = above about -30%; note: % is set by controls: 0 for no effect and ±100 for the full control effect
# Target sequence (O00167 whole entry, looked up): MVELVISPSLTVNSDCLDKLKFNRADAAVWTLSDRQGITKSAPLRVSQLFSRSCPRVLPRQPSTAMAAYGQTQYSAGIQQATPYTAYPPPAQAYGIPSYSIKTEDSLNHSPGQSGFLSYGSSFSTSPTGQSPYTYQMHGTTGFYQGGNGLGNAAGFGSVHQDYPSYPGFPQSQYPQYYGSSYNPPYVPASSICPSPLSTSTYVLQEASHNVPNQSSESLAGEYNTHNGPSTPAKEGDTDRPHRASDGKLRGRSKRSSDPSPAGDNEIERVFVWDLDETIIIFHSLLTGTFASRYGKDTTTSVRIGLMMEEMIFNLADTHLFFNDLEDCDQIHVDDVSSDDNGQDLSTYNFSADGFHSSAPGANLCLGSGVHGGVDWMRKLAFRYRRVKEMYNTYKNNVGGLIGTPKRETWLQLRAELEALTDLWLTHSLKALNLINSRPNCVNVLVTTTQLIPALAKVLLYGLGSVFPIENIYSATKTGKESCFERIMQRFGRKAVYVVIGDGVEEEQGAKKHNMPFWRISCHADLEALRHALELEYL
# Target sequence (Q15475 whole entry, looked up): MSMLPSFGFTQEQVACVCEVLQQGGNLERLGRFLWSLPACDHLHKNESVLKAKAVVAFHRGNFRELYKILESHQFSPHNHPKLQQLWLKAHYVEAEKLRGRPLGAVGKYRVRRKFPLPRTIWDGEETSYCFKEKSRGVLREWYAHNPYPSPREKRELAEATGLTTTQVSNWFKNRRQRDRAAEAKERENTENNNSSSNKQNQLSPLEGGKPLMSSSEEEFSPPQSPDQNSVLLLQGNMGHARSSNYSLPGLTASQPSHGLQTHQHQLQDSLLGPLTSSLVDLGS
#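 Homogeneous AlphaScreen proximity assay pairing GST-Six1 with His-tagged Eya2 (added as 5X mix: 250 nM and 500 nM) in 50 mM Tris pH 8.0, 300 mM NaCl, 1 mM TCEP. Glutathione donor and nickel acceptor beads; 1 h, 37 °C, dark.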
# CtBP-E1A inh: inhibitors of CtBP/E1A interaction; AlphaScreen GST-E1A/His-CtBP binding, 1536-well; active compounds read low; control for the full effect not named in the record; activity change, % (no concentration beside the values); 0.49% of 340,000 active; in the data active means activity change below about -65%; inconclusive means about -30% to -65%; inactive means above about -30%; note: % is set by controls: 0 for no effect and ±100 for the full control effect
#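 Protein mix (5X: 125 nM each GST-E1A, His-CtBP) was incubated with pinned compound 2 h at 37 deg C in dark, in 50 mM Tris pH 8.0 buffer with 300 mM NaCl. Glutathione donor and nickel acceptor beads followed; AlphaScreen signal read after 1 h.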
# TRPV1 potentiator: enhances activation of the human vanilloid receptor TRPV1. Q8NER1. TRPV1-expressing cells, Fluo-8 calcium influx, capsaicin EC20 potentiation; host cell line not named in the record; control for the full effect not named in the record. potentiation, % at 8.33 µM. 0.02% of 320,000 active. AID 540277; active means potentiation above 80%; inconclusive means 30% to 80%; inactive means below 30%; note: 0% is about no effect
#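 TRPV1-expressing cells were cultured overnight at 35.5C and loaded with Fluo-8 calcium dye for 40 to 90 min at room temperature. After a 10 s baseline, compound was added and calcium influx was read kinetically for 3 min (ex 480/em 520 nm).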
# Active calls of the source: *; ? = inconclusive; . = not tested or not shown; & = joins results of further samples; [ ] = dose if it differs, or a comment.
# Results follow in this order: PINK1 modulator	Sfp PPTase inh	D2 agonist	D2 potentiator	Six1-Eya2 inh	CtBP-E1A inh	TRPV1 potentiator
- COc1ccccc1NC(=O)C(=O)N/N=C(\C)CC(=O)Nc1ccc(OCc2ccccc2)cc1
 : 9.6%	-1%	2.3	-2	0	-2	1
- CCOC(=O)C1CCCN(C(=O)CN2C(=O)NC(C)(c3ccc4ccccc4c3)C2=O)C1 (stereo not given)
 : -1.7%	.	-2.6	-18	2	-4	9
- CCOc1ccccc1/C=C(/NC(=O)c1ccccc1)C(=O)N1CCCCC1
 : -0.5%	-7%	-0.7	-29	6	-14	-15
- COc1ccc(CCN(C)CC(=O)Nc2c(C)cc(C)cc2C)cc1OC
 : -0.3%	0%	-4.7	-5	1	-10	-7
- CC(=O)Nc1ccc(OCC(O)Cn2cnc3ccccc32)cc1 (stereo not given)
 : -0.7%	14%	-4.5	-10	3	3	2
- Cc1cc(NC(=O)CSc2nc3ccccc3n2CC(=O)N2CCCCC2)no1
 : -0.7%[38.3 µM]	20%	-1.3	-7	1	-4	26
- C(=NN1CCCCCC1)c1ccc2ccccc2n1
 : -2.4%	.	0.8	-5	-12	-11	.
- CN(C)Cc1c[nH]c2nc[nH]c(=O)c12
 : -1.7%	.	-1.8	-2	-7	-9	.
- CC1(C)Cc2ccccc2C(=NCC(=O)O)N1
 : -1.4%	-9%	-0.9	8	16	-16	4
- COc1cc(N)ccc1Nc1c2ccccc2nc2ccccc12
 : -0.8%	.	8.7	-6	?	?	.
- COc1ccccc1NC(=O)CSc1nnc(-c2ccc(NC(C)=O)cc2)n1C
 : -1.2%	-20%	-3.6	-10	-1	-1	-2
- COc1ccc(N2CCN(C(=O)CCS(=O)(=O)c3ccc4c(c3)NC(=O)CO4)CC2)cc1
 : -0.7%	19%	7.5	3	0	-4	2
- CCOc1cc(C2CC(=O)NC3=C2C(=O)C(C(=O)OC)C(C)C3)cc(Cl)c1O (stereo not given)
 : -0.9%	5%	3.4	-10	6	0	?
- O=C(COC(=O)c1c(F)cccc1F)Nc1cccc(S(=O)(=O)N2CCCCC2)c1
 : 1.0%	.	-0.3	-9	-18	-7	.
- COc1ccccc1-c1nc(C#N)c(N2CCN(Cc3ccccc3)CC2)o1
 : 2.2%	?	-1.8	-36	?	?	-13
- Cc1ccc(S(=O)(=O)NNC(=O)c2ccccc2-n2cccc2)cc1
 : 2.0%	6%	-5.5	-11	-3	-2	11
- Cc1onc(-c2c(F)cccc2Cl)c1C(=O)Nc1nnc(C(F)(F)F)s1
 : 16µM*	20%	-4.4	-11	-12	-21	14
- COc1ccc(CCNc2ccc(C(CC(N)=O)NC(=O)Cc3cccc4ccccc34)cc2[N+](=O)[O-])cc1 (stereo not given)
 : 2.3%	-28%	-2.8	-7	-5	-7	2
- COc1ccc(NC(=O)/C=C/c2cccc(F)c2)cn1
 : 2.8%	13%	2.9	-23	-1	-1	11
- O=C(Nc1cccc(F)c1)c1ccc2ncsc2c1
 : -0.1%	11%	-2.8	-15	-7	-21	-9
- CCCCn1c(=S)[nH]c2cc(S(=O)(=O)N3CCCCC3)ccc21
 : -0.3%	-6%	0.3	-8	-3	.	1
- CNC(=S)N(C)[C@H]1c2c(ccc3ccccc23)OC[C@H]1CO
 : -1.9%	-10%	-1.9	-4	0	0	-11
- CCn1cc([N+](=O)[O-])c(C(=O)N2N=C(c3ccccc3)CC2c2ccc([N+](=O)[O-])cc2)n1 (stereo not given)
 : -1.3%	8%	-2.8	-12	-17	-14	-8
- O=C(Cc1ccc(Cl)c(Cl)c1)Nc1cccc2ncccc12
 : 0.8%	-16%	-1.5	-37	-9	-1	0
- COCCN(C(=O)CCl)C(C(=O)NC1CCCCC1)c1ccccc1C (stereo not given)
 : -2.4%	7%	-8.9	-22	2	2	-5
- O=C(COc1ccc(Cl)cc1)OCC(=O)N1CCOCC1
 : -0.9%	.	3.8	0	3	4	.
- CC(=O)Nc1ccc(-c2ccnc3c2CC(C)(C(=O)Nc2ccc(C(C)C)cc2)O3)cc1 (stereo not given)
 : -0.5%	.	-2.0	-4	-4	2	.
- S=c1[nH]nc(CCc2nc3ccccc3[nH]2)n1-c1ccccc1
 : -0.5%	?	8.1	1	0	.	2
- Cc1ccc(CSCC(=O)NN=C2CCN(C)CC2)cc1
 : 4.7%	11%	-4.2	-16	23	0	20
- O=C(CCc1ccccc1)NCCc1nc2ccccc2[nH]1
 : -0.4%	23%	3.8	-8	1	8	-10
- CCOC(=O)COn1c(SCC(=O)OCC)nc2ccccc2c1=O
 : -1.2%[38.3 µM]	6%	0.1	-3	3	-4	11
- CC(C)C[C@H](NC(=O)c1nc[nH]c1C(=O)NCc1ccccc1)C(=O)OC(C)(C)C
 : -1.5%	25%	4.9	-2	-2	1	-3
- COc1ccc(CCNC(=O)Cn2nnc(-c3ccc(N4CCOCC4)cc3)n2)cc1OC
 : -0.7%	-12%	-4.4	3	12	-2	3
- O=C(CSc1nc(=O)n(CCN2CCOCC2)c2c1CCC2)Nc1ccc(OC(F)(F)F)cc1
 : 1.3%	.	-2.3	-1	6	-5	-5
- N#CC(C#N)=Cc1cccn1-c1ccc(S(N)(=O)=O)cc1
 : -1.7%	9%	-1.4	-7	-2	-20	17
- O=C(Nc1ccccc1C(F)(F)F)c1c(F)cccc1Cl
 : 1.3%	13%	-5.6	-2	-13	-22	6
- COc1ccc(C(=O)NNC(=O)CSc2nnc(C)n2CC2CCCO2)cc1 (stereo not given)
 : 0.5%	-19%	2.6	-2	4	7	2
- COc1ccc(Cl)cc1NC(=O)CN(C)C(=O)c1cc2ccccc2cc1O
 : -0.1%	.	-3.0	-32	-2	3	?
- CN(C(=O)CN1C(=O)c2ccccc2S1(=O)=O)C1CCCCC1
 : 0.2%	.	-1.8	-4	4	4	.
- CN1CCN(C(=O)C2=C[C@H](c3ccc4c(c3)OCO4)C[C@H](OCc3ccc(CO)cc3)O2)CC1
 : -0.7%	2%	-1.2	-23	6	-3	12
- CC(C)(C)C(=O)OCc1nc(-c2ccc(Cl)cc2)cs1
 : ?	10%	3.9	-4	48	43	8
- O=C(Nc1ccc2c(c1)C(=O)OC2)c1ccc(C(F)(F)F)cc1
 : 1.1%	22%	-2.5	-15	0	0	-15
- CC(C)NS(=O)(=O)c1ccc(NC(=O)C2CC3C=CC2C3)cc1 (stereo not given)
 : -0.5%	23%	-2.3	-3	2	6	4
- COc1ccc2c(c1)CCCC21NC(=O)N(CC(=O)NCc2cccs2)C1=O (stereo not given)
 : 1.0%	.	-3.9	-2	-16	-14	.
- CCN(CCCNC(=O)CC(C(=O)N1CCc2ccccc21)n1ccnc1)c1cccc(C)c1 (stereo not given)
 : 8.4%[38.3 µM]	6%	0.2	-7	-26	-27	6
- C=C(C)Cn1c(N)cc(=O)nc1SCC(=O)Nc1cccc(C(F)(F)F)c1
 : -2.4%	6%	-4.3	-31	0	2	2
- COc1ccc(CSCCc2n[nH]c(=S)n2-c2ccccc2)cc1C
 : -0.9%	-18%	6.5	-10	-16	-2	9
- COc1ccc(-c2cc(C(=O)N3CCN(C(=O)c4ccco4)CC3)[nH]n2)cc1
 : 4.0%	9%	-0.7	-6	4	.	3
- O=C1N/C(=N/Nc2ccccc2)S/C1=C\c1ccccc1
 : 1.5%	25µM*	9.3	55*	-7	-8	-15
- COc1ccc(N2CCN(C(=O)CN(c3ccc(Br)cc3)S(C)(=O)=O)CC2)cc1
 : 1.3%[38.3 µM]	22%	0.9	-12	-18	7	3
- O=C(CCn1c(=O)oc2ccccc21)NC1=NCCS1
 : 1.4%[38.3 µM]	3%	1.2	-6	-5	-9	1
- COc1ccc(NC(C)c2cc(Cl)ccc2O)cc1 (stereo not given)
 : 7.0%	-9%	1.8	-4	-30	-22	?
- Cc1ccc(Cl)cc1NC(=O)CN1CCN(S(=O)(=O)N2CCOCC2)CC1
 : -2.4%	13%	1.0	-3	1	10	4
- CC(C)C(=O)NC(=S)Nc1ccccc1C(=O)NC1CCCCC1
 : -2.0%	5%	-2.7	-19	7	1	-7
- CCCCn1c(SCC(=O)N(CC)C2CCS(=O)(=O)C2)nc2cc(S(N)(=O)=O)ccc21 (stereo not given)
 : 2.3%	8%	3.7	11	-13	5	-5
- Cc1ccc(C2NC(=O)c3ccccc3N2)s1 (stereo not given)
 : ?	0%	-3.3	-17	2	1	-5
- CCCN(CCC)CCOc1cc(C)ccc1C(C)C
 : 5.1%	-50%	?	-10	-6	8	-18
- Cn1c(=O)n(CC(=O)Nc2ccc(F)cc2)c2ccccc21
 : 4.6%[38.3 µM]	12%	1.4	5	4	-1	-2
- Cc1nc2ccccc2nc(=O)c1NNc1ccccc1
 : -1.8%&5.1%	-6%	-2.9	0&-5	2&-2	1&1	23&-25
- O=C(COC(=O)c1cc[n+]([O-])cc1)Nc1ccc(Cl)cc1Cl
 : 2.8%	.	-1.8	-13	0	8	.

# Going on with the list.
# Results follow in this order: PINK1 modulator	Sfp PPTase inh	D2 agonist	D2 potentiator	Six1-Eya2 inh	CtBP-E1A inh	TRPV1 potentiator
- O=C(c1ccccc1)c1nc2ccccc2[nH]c1=O
 : 2.2%[38.3 µM]	9%	-1.8	0	1	3	9
- N/C(=N\OS(=O)(=O)c1ccc2ccccc2c1)c1cccnc1
 : 2.1%	17%	-3.6	-8	-6	.	7
- Oc1csc(Cc2nc(-c3ccccc3F)cs2)n1
 : -0.8%	-15%	1.0	-1	12	10	13
- c1cncc(-c2nc(-c3cccs3)cs2)c1
 : 0.9%	-26%	-2.7	4	5	2	28
- O=C1c2cc3ccccc3c(-c3ccccc3)c2C(=O)N1c1ccccn1
 : 4.0%	-18%	-4.4	-21	0	-10	-11
- Cc1cccc(NC(=O)/C(C#N)=C/c2cccc([N+](=O)[O-])c2)n1
 : -1.0%	3%	-6.0	-3	0	.	3
- O=S1(=O)CCC(NC(=S)SCCOc2ccccc2)C1 (stereo not given)
 : 1.2%	-14%	0.0	-20	9	0	23
- Cc1ccc(S(=O)(=O)NCC(c2ccco2)N2CCc3ccccc32)cc1 (stereo not given)
 : ?	.	-2.8	-3	-27	-15	24
- Cc1noc(C)c1COC(=O)Cn1c(C)nc2ccccc21
 : 0.2%	-3%	0.9	-5	5	3	3

# Retrieved by structure from the list above (two):
# Results follow in this order: PINK1 modulator	Sfp PPTase inh	D2 agonist	D2 potentiator	Six1-Eya2 inh	CtBP-E1A inh	TRPV1 potentiator
- O=C(c1ccccc1)c1nc2ccccc2[nH]c1=O
 : 2.2%[38.3 µM]	9%	-1.8	0	1	3	9
- Cc1ccc(S(=O)(=O)NCC(c2ccco2)N2CCc3ccccc32)cc1 (stereo not given)
 : ?	.	-2.8	-3	-27	-15	24
